V. cholerae QS = Vibrio cholerae quorum sensing activators, luminescence (AID 686977); 9,400 tested, under 10 active; V. cholerae quorum sensing reporter, luminescence, 6 h; higher luminescence means a stronger effect; most inactives read 0; luminescence at 50 µM unless noted, or EC50 in µM where a hit was titrated;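 active = light above mean plus 3 SD and confirmed in a dose series; inconclusive = above that limit without a clear retest; inactive = below it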;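 note: raw light counts without normalisation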
* = called active by the depositor; ? = inconclusive; [ ] = another dose, or the depositor's remark. This is a subset; rates above refer to the full screens.

No.	canonical_smiles	V. cholerae QS
1	Cc1cc(NS(=O)(=O)c2ccc(NC(=O)CCc3ccccc3)cc2)no1	40
2	COc1ccc(N2C(=O)NC3CC2(C)Oc2ccc(Cl)cc23)cc1OC (configuration not stated)	0
3	Cc1cc(-c2ccco2)n(CC(=O)NCc2ccco2)n1	240
4	Cc1ccc(N2CC(C(=O)Nc3ccccn3)CC2=O)cc1 (configuration not stated)	0
5	COc1ccc(CN2C(=O)CN=C2Nc2ccc(C)cc2C)cc1	0
6	COC(=O)c1c(N)sc(C(C)=O)c1C	0
7	O=C(Nc1nsc(-c2ccccc2)n1)c1cccs1	0
8	Cc1ccccc1-c1nc(CS(=O)(=O)CC(=O)NCc2ccc3c(c2)OCO3)c(C)o1	0
9	O=C1CC(N(C(=O)c2ccco2)c2cccc(Cl)c2)C(=O)N1c1cccc(Cl)c1 (configuration not stated)	80
10	COc1ccccc1N1CCN(CC(O)COc2cccc3ccccc23)CC1 (configuration not stated)	0[10 µg/mL]
11	CCn1c(SCC(=O)N2CCCC2)nc2c(c1=O)SC(C)C2 (configuration not stated)	40
12	COc1cccc(/C=c2\sc3nc(-c4cccs4)nn3c2=O)c1OC	40
13	COc1ccc(C2CCCN2C(=O)Nc2ccc(C)c(C)c2)cc1OC (configuration not stated)	240
14	COc1ccc(NC(=O)c2noc3c2CCC3)cc1	40
15	O=C1NCCNC1(c1c[nH]c2ccccc12)C(F)(F)F (configuration not stated)	0
16	CCN(CC)CCN1C(=O)C(O)=C(C(C)=O)C1c1ccc(OC)c(OC)c1 (configuration not stated)	40
17	CN(CC(=O)NC1CCCCCC1)S(=O)(=O)c1ccc2c(c1)n(C)c(=O)c(=O)n2C	0
18	CCOc1ccc(-c2nc(C#N)c(NCc3ccc4c(c3)OCO4)o2)cc1	0
19	O=C(C1CC1)N1CCN=C1SCc1ccccc1Cl	40
20	O=C(CSc1nc2ccccc2nc1SCC(=O)N1CCOCC1)N1CCOCC1	0
21	Cc1ccc(C(C(=O)NC2CCCC2)N(Cc2ccc(F)cc2)C(=O)c2csnn2)o1 (configuration not stated)	?
22	O=C(CN1C(=O)c2ccccc2S1(=O)=O)NCc1ccccc1Cl	0
23	CC1CCN(c2oc(-c3ccccc3F)nc2C#N)CC1	40
24	CC(C)(C)NC(=O)CN1CCC(O)(c2ccccc2)CC1	0
25	CCc1nnc(NC(=O)CSc2nnc(C)n2-c2ccc(C)cc2)s1	0
26	COc1ccc(-c2c(C)oc3c(CN4CCCCC4C)c(O)ccc3c2=O)cc1OC (configuration not stated)	280
27	CN(C)C(=O)C(CCN1CCC(O)(c2ccc(Cl)cc2)CC1)(c1ccccc1)c1ccccc1	0[10 µg/mL]
28	COc1cc(C(=O)Nc2ccc(Br)cc2C(=O)c2cc(OC)c(OC)c(OC)c2)cc(OC)c1OC	240
29	CCNc1nc(OC)nc(Oc2ccc(C(=O)OC)cc2)n1	0
30	Cc1sc(NC(=O)CN2CCOCC2)nc1-c1ccc2c(c1)CCN2S(=O)(=O)c1ccccc1	0
31	O=C(Nc1nnc(-c2ccc3c(c2)CCCC3)o1)c1ccccc1Cl	0
32	CC(C)(C)C(=O)Cn1c[n+](N)cn1	0
33	Cc1ccc(S(=O)(=O)N2CCC(C(=O)Nc3ccc4c(c3)COC4=O)CC2)cc1	0
34	Cc1cccc(NC(=O)CSc2nc(C)nc3c2c(=O)n(C)c(=O)n3C)c1	0
35	CCOC(=O)C1CCCCN1C(=O)CCc1c(C)nc2ncnn2c1C (configuration not stated)	40
36	CC(C)CNC(=O)CCCc1ccccc1	40
37	COc1cccc(NC(=O)Cn2cc3c(n2)CCCCC3)c1	40
38	CCCNC(=O)c1cc(C)no1	0
39	CN=C(Nc1ccc(C(=O)OC)cc1)SC1CC(=O)N(c2ccccc2F)C1=O (configuration not stated)	?
40	O=C(OC(C(=O)NCC1CCCO1)c1ccc(F)cc1)c1cccs1 (configuration not stated)	0
41	CC(C)C(=O)Nc1cccc(NC(=O)c2cccnc2)c1	0
42	Cn1c(-c2ccccc2)cnc1SCC(N)=O	40
43	O=C(NCC(=O)N1CCCC1C(=O)O)OC1CCCCC1 (configuration not stated)	0
44	O=S(=O)(NCc1csc(-c2cccnc2)n1)c1ccc(Cl)s1	0
45	COc1ccc(CC(C)N2CCN(c3cccc(C(F)(F)F)c3)CC2)cc1OC (configuration not stated)	0
46	O=C(c1ccc(OCCN2CCCCC2)cc1)c1c(-c2ccc(O)cc2)sc2cc(O)ccc12	40[10 µg/mL]
47	COc1ccc(CC(=O)NC(CC(=O)O)c2ccc(OC)cc2)cc1 (configuration not stated)	0
48	O=C(CSc1nnc2scc(-c3ccccc3)n12)c1ccc2c(c1)OCCO2	40

Molecules from the list above that have a cyano group, in the order listed:
No.	canonical_smiles	V. cholerae QS
18	CCOc1ccc(-c2nc(C#N)c(NCc3ccc4c(c3)OCO4)o2)cc1	0
23	CC1CCN(c2oc(-c3ccccc3F)nc2C#N)CC1	40

(more compounds)
No.	canonical_smiles	V. cholerae QS
49	COc1cccc(N2C(=O)CC(N3CCN(S(=O)(=O)c4ccccc4)CC3)C2=O)c1 (configuration not stated)	0
50	Cc1ccc(C)c(N(CC(=O)NC2CCCC2)C(=O)c2cc3cc4cc(C)ccc4nc3s2)c1	0
51	COc1ccccc1C(=O)n1nc(-c2ccccc2)nc1N	0
52	Cc1cnc(NC(=O)C2CCCC2)s1	0
53	CC(C)OC(=O)c1c(NC(=O)Cn2cnc([N+](=O)[O-])n2)sc2c1CCCC2	40
54	COc1ccc(Cl)cc1S(=O)(=O)n1cnc2ccccc21	40
55	CC(C)NC[C@H](O)COc1ccc(CC(N)=O)cc1	0[10 µg/mL]
56	Cc1cc(C)nc(Nc2nc(=O)c3ccccc3s2)n1	0
57	COC(=O)Cc1csc(N)n1	0
58	CN(C(=O)CSc1nnc(N)s1)c1c(N)n(Cc2ccccc2)c(=O)[nH]c1=O	0
59	O=c1c2ccccc2c2c(O)nc(-c3ccccc3)n2n1Cc1ccccc1	0
60	Oc1c(C(c2cccs2)N2CCN(c3ccccc3)CC2)sc2ncnn12 (configuration not stated)	0
61	Cc1ccc(C2CC(c3ccccc3C)n3nc(N)nc3N2)cc1 (configuration not stated)	0
62	Cc1cc(NC2C3CC4CC(C3)CC2C4)n2nnnc2n1 (configuration not stated)	0
63	Nc1ccnc(C(F)(F)F)c1C(=O)c1ccccc1	0
64	N#Cc1c(NC(=O)CSc2ccccn2)oc(-c2ccccc2)c1-c1ccccc1	0
65	Cc1nc(CS(=O)c2ccc(Cl)cc2)cc(NCc2ccc(Cl)cc2Cl)n1 (configuration not stated)	0
66	Cc1ccc(Cc2cnc(NC(=O)CN3CCOCC3)s2)cc1Cl	0
67	O=C(Cn1cnc2c(cnn2-c2ccccc2)c1=O)c1ccc(Cl)cc1	0
68	O=C(CCn1c(=O)oc2ccccc21)NCCCN1CCCC1=O	40
69	COC(=O)CCC(=O)c1oc2ccc(OC)cc2c1N	0
70	Cc1ccc(S(=O)(=O)NNC(=O)C2CCN(Cc3ccccc3)CC2)cc1	40
71	CC(=O)O[C@]1(C(C)=O)CC[C@H]2[C@@H]3C=C(C)C4=CC(=O)CC[C@]4(C)[C@H]3CC[C@@]21C	40[10 µg/mL]
72	O=C(O)c1ccc2c(=O)[nH]c(CN3CCOCC3)nc2c1	0
73	CN(Cc1cnc2nc(N)nc(N)c2n1)c1ccc(C(=O)NC(CCC(=O)O)C(=O)O)cc1 (configuration not stated)	0[10 µg/mL]
74	CCOC(=O)C(C)Sc1nc2c(c(=O)[nH]c(=O)n2C)n1Cc1ccc(Cl)cc1 (configuration not stated)	40
75	CCOC(=O)NC(O)C(=O)c1cccs1 (configuration not stated)	40
76	COC(=O)c1c(NC(=O)CSc2nnc(CNc3ccc(Cl)cc3)o2)sc(C)c1C	0
77	Cc1ccc(Cn2ccc(-c3cnc(-c4ccccc4)s3)n2)cc1	0
78	O=C(Nc1cccc(F)c1)c1ccc(S(=O)(=O)N2CCOCC2)cc1	40
79	COc1ccc(N2CCN(/C(=N\S(=O)(=O)c3ccc(C)cc3)Nc3nc(C)cc(C)n3)CC2)cc1	0
80	O=C1c2ccccc2C(=O)N1CCCc1nc(-c2ccc(Cl)cc2)no1	0
81	Cc1ccc2nc(C)c(C)nc2c1N	0
82	O=S(=O)(c1ccc(Cl)cc1)n1ccc2cccnc21	0
83	OC(CCN1CCCCC1)(c1ccccc1)C1CCCCC1 (configuration not stated)	0[10 µg/mL]
84	O=C(O)C(Oc1ccc2c3c(c(=O)oc2c1)CCC3)c1ccccc1 (configuration not stated)	0

Some values from the entries so far:
COC(=O)c1c(NC(=O)CSc2nnc(CNc3ccc(Cl)cc3)o2)sc(C)c1C in V. cholerae QS is listed with 0
OC(CCN1CCCCC1)(c1ccccc1)C1CCCCC1 (configuration not stated) in V. cholerae QS is listed with 0[10 µg/mL]
CN(Cc1cnc2nc(N)nc(N)c2n1)c1ccc(C(=O)NC(CCC(=O)O)C(=O)O)cc1 (configuration not stated) in V. cholerae QS is listed with 0[10 µg/mL]

Additional records follow:
No.	canonical_smiles	V. cholerae QS
85	O=C(Nc1ccncc1)c1cccs1	0
86	O=C(O)CCN=C1CCc2ccccc2N1	80
87	CCN(CC)CCNC(=O)c1cn(-c2ccccc2)nc1-c1cccs1	0
88	CCCN1CCN(CCCNC(=O)Cn2nc(-c3ccccc3)ccc2=O)CC1	0
89	Cc1ccc(C(C)NC(=O)C2CCCO2)cc1C (configuration not stated)	0
90	COc1ccc2c(c1)SCCC2=O	40
91	O=c1cc(O)n(-c2ccc(Cl)cc2)c(=S)[nH]1	40
92	COC(=O)c1ccc(Oc2ccc(C(C)(C)C)cc2)c([N+](=O)[O-])c1	0
93	Cn1c(C(=O)NCCCN2CCc3ccccc3C2)cc2c(=O)n(C)c3ccccc3c21	0
94	COc1cccc(C2C(C(=O)c3cccs3)=C(O)C(=O)N2c2cc(C)on2)c1 (configuration not stated)	0
95	Clc1ccsc1-c1ccc2ccccc2n1	40
96	CNCCC(Oc1ccc(C(F)(F)F)cc1)c1ccccc1 (configuration not stated)	0[10 µg/mL]
97	CCOCCCNC(=O)CCCn1nc(C)n2c(cc3sccc32)c1=O	40
98	CCN1C(=O)c2cccc3c(S(=O)(=O)Nc4ccccc4)ccc1c23	40
99	COc1ccc(N(CC(=O)Nc2cc(C)ccc2C)S(=O)(=O)c2c(C)nn(C)c2C)cc1	0
100	CC1=C(C(=O)Nc2ccccc2)C(c2cccnc2)n2nc(-c3cccnc3)nc2N1 (configuration not stated)	0
101	Cc1ccc(-n2nnc3c(=O)n(CC(=O)c4ccccc4)cnc32)cc1	0
102	CCOC(=O)CSc1nnc2n(Cc3ccccc3)c(=O)c3c4c(sc3n12)CCC4	320
103	CCCNC(=O)C(NS(=O)(=O)c1ccc2c(c1)c(=O)n(C)c(=O)n2C)c1ccccc1 (configuration not stated)	40
104	CC(c1cccnc1)N(CCN(C)C)C(=O)Nc1ccc(Cl)cc1 (configuration not stated)	0
105	Cn1nc(-c2ccc(Cl)cc2)c2cc(C(=O)NC3CC3)sc21	160
106	COC(=O)C(Cc1ccc(O)cc1)NC(=O)c1ccccc1 (configuration not stated)	40
107	O=C(O)c1ccccc1Nc1cccc(C(F)(F)F)c1	0[10 µg/mL]
108	CC(C)NC(=O)CSc1nnc(-c2ccncc2)n1-c1ccccc1	0

An excerpt of these results, as labelled records:
(28) COc1cc(C(=O)Nc2ccc(Br)cc2C(=O)c2cc(OC)c(OC)c(OC)c2)cc(OC)c1OC
  V. cholerae QS: 240
(35) CCOC(=O)C1CCCCN1C(=O)CCc1c(C)nc2ncnn2c1C (configuration not stated)
  V. cholerae QS: 40
(104) CC(c1cccnc1)N(CCN(C)C)C(=O)Nc1ccc(Cl)cc1 (configuration not stated)
  V. cholerae QS: 0
(87) CCN(CC)CCNC(=O)c1cn(-c2ccccc2)nc1-c1cccs1
  V. cholerae QS: 0

Further records follow.
No.	canonical_smiles	V. cholerae QS
109	C[N+](C)(C)CCCCCC[N+](C)(C)C	0[10 µg/mL]
110	CCOc1cc(N2CCOCC2)c(OCC)cc1NC(=O)CN1CCc2ccccc2C1	0
111	COc1ccc(-c2noc(CSc3nc4ccccc4c(=O)n3-c3ccc(C)cc3)n2)cc1	320
112	O=c1[nH]c(=O)n(C2CCCCCC2)c(O)c1C=NC1CCN(Cc2ccccc2)CC1	40
113	Cc1cc(C(C)(C)CC(C)(C)C)ccc1OCCOCC[N+](C)(C)Cc1ccccc1	0[10 µg/mL]
114	COP(=O)(OC)C(NC(=O)C(C)(C)C)=C(Cl)Cl	560
115	CN(c1cccc(NC(=O)CSc2ccc(Cl)cc2)c1)S(C)(=O)=O	0
116	CC1(C)Cc2c(sc3c2C(=O)NC(c2cccnc2)N3)CO1 (configuration not stated)	160
117	Cc1ccc2c(c1)C(c1ccncc1)=NNC(c1ccc(C(C)C)cc1)=N2	0
118	CCc1cccc(OCCOCCN2CCCC2)c1	40
119	CC(=NCC1CCCO1)c1c(O)n(-c2ccc(C)cc2)c(=O)[nH]c1=O (configuration not stated)	0
120	CCOC(=O)N1CCC(NC(=O)c2cccc3c2C(=O)N(CCOC)C3)CC1	40
121	CC(C)OC(=O)CSc1nnc(-c2cccnc2)n1Cc1ccccc1	0
122	Cc1ccc(CC2CC(=O)N(c3nc4ccccc4n3C)C2=O)cc1 (configuration not stated)	40
123	CC(C)c1nc2sc3c(NCc4ccco4)ncnc3c2c2c1COC(C)(C)C2	0
124	Nc1ccc(N2CCCCC2)cc1N1CCCCC1	?
125	Cc1ccc(-c2nc3ccccc3o2)cc1NC(=O)c1ccc2c(c1)OCO2	0
126	CCOc1ccc2nc(SCC(=O)Nc3cc4c(cc3C(C)=O)OCO4)[nH]c2c1	0
127	COc1ccc(Cc2nnnn2CC(=O)O)cc1	40
128	Cc1nnc(SCC(=O)NCc2ccco2)n1Cc1ccccc1	0
129	CCOC(=O)c1c(NC(=O)CSc2nc(C)cc(C)c2C#N)sc(C(C)=O)c1C	40

Two of these compounds, reformatted:
#127 COc1ccc(Cc2nnnn2CC(=O)O)cc1
  V. cholerae QS = 40

#124 Nc1ccc(N2CCCCC2)cc1N1CCCCC1
  V. cholerae QS = ?

Screens: PubChem, Southern Research Specialized Biocontainment Screening Center
